Vif A3G: inhibitors of Vif binding to APOBEC3G peptide, primary screen, biochemical, TR-FRET, GST-Vif 1-94, biotin-A3G peptide, dose response retest (AID 1117319); TR-FRET GST-Vif / biotin-A3G peptide binding; higher % means a stronger effect; test concentration not given here; strong numbers were not always called active; inhibition, %; hits with a dose series show IC50 in µM; 260,000 tested, 0.57% active;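 active = above the screen mean plus three standard deviations and confirmed in dose response; inconclusive = results disagree or hit not tested in dose response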;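 note: Vif residues 1-94 fused to GST binding biotinylated APOBEC3G peptide 110-148; 0% = full assay without inhibitor and 100% = GST in place of GST-Vif; retest series ran down from 100 µM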
rRNA inh HTS: inhibits bacterial ribosomal RNA function over humanized ribosomes; E. coli WT GFP vs humanized-ribosome RFP mutants, fluorescence, 24 h; active compounds read low; DMSO median 0, no signal -100; 350,000 tested, 1.6% active; AID 720706; GFP signal change (wild-type ribosome), % (test concentration not listed);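 active = significant combined selectivity score with lowered wild-type GFP, culture density cut under 30%, mutant RFP and density less affected; inactive = any of these conditions unmet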; note: one replicate is shown; some compounds called inactive have numbers as strong as hits
HNF4A DNA FP: change in binding of human HNF4 alpha to DNA; P41235; HNF4a-FITC DNA binding, fluorescence polarization, 1 h; activity change, % at 10 µM; 360,000 tested, 0.3% active; in the data active = activity change above about 30%, passing the limit was not always enough;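 note: controls were the assay level and a saturating level of protein; the project sought stronger binding though the title names inhibitors; some compounds called inactive have numbers as strong as hits; positive values seem to mean higher polarization but the record does not say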
E coli growth: inhibitors of Escherichia coli growth | OD600, 23 h; active compounds read low | OD600 absorbance (test concentration not listed) | 330,000 tested, 0.21% active | AID 1053175;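 active = OD600 absorbance below the run mean of sample wells minus 3.6 SD, in any replicate, cut at about 0.56 in these data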;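 note: stock transfer was 300 nL into about 60 µL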
FGF22 binding: FGF22 (human) thermal shift binding | recombinant FGF22 thermal shift, SYPRO orange fluorescence; percent of sucrose octasulfate shift, DMSO zero | Q9HCT0 | calls only at 9.99 µM | 340,000 tested, 1.5% active;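 active = melting point raised past a set limit in the mean and every replicate; inconclusive = no clear call; three in four hits are not shown here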
Target sequence (Q9HCT0 whole entry, looked up): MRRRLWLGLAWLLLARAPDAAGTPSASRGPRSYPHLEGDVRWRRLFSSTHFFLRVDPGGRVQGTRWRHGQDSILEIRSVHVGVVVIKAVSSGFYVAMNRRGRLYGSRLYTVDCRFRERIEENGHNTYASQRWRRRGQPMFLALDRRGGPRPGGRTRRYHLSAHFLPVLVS
ALR H2O2 inh: blocks human ALR sulfhydryl oxidase activity. P55789. purified ALR, DTT oxidation, H2O2 HRP-luminol luminescence. inhibition, % (test concentration not listed). 290,000 tested, 3.8% active;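 active = mean and each replicate at 75% or more; inconclusive = only one of the two met; inactive = neither met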;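 note: stock transfer was 7.5 nL into about 7.5 µL; 0% = neutral wells and 100% = wells with inactivated enzyme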
Target sequence (P55789 whole entry, looked up): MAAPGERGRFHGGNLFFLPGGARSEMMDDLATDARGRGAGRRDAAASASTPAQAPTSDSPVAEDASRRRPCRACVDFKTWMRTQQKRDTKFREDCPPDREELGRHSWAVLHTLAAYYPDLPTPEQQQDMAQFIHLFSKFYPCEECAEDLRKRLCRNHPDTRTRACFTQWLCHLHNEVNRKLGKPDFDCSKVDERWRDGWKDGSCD
MLL AF4-AF9 inh: blocks AF4 peptide binding to human AF9. P42568. AlphaScreen, biotin-AF4 peptide binding to FLAG-AF9. inhibition, % at 10 µM. 350,000 tested, 0.47% active. AID 651704;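 active = every replicate reaching a set inhibition limit, whatever the replicate mean, cut at about 25% in these data; inconclusive = mean inhibition reaches that limit but some replicates miss it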;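 note: 0% = plate neutral control median and 100% = total signal loss; the record names both 10 and 1 µM as test concentration; the first replicate is given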
Target sequence (P42568 whole entry, looked up): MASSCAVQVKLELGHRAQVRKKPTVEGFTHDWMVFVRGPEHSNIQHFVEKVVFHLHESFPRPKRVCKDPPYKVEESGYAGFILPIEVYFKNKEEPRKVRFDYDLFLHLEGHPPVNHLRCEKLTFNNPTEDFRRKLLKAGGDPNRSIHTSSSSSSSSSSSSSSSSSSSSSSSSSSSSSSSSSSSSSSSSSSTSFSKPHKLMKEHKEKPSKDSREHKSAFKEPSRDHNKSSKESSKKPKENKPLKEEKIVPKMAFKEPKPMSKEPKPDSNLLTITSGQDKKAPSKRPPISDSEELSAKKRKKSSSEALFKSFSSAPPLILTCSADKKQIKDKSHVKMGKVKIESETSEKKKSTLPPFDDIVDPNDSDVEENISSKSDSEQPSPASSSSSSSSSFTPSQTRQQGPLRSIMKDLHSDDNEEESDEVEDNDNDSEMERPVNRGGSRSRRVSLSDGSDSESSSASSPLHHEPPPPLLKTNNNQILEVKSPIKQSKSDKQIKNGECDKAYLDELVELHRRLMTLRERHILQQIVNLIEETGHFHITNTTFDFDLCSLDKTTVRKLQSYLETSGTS
rRNA inh HTS OD600: second read-out of rRNA inh HTS, no call of its own (marks repeat the call); OD600 change, %; measured here: OD600 growth;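 optical density of the mix in the first replicate; 0 = DMSO median and -100 = no signal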
rRNA inh HTS RFP: further read-out of rRNA inh HTS, marked with its call; RFP signal change, %; measured here: RFP humanized mutant strains;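 first replicate; 0 = DMSO median and -100 = no signal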
Numbers without * were called inactive. Only part of the results is shown; rates above refer to the full screens.

For O=C(NCCc1ccccc1)C1CCC(CNS(=O)(=O)c2cccc3cccnc23)CC1 (centres undefined) the results were Vif A3G -24.0%, rRNA inh HTS -3.0, HNF4A DNA FP 0.7, E coli growth 0.68, FGF22 binding inactive, ALR H2O2 inh 2.1, MLL AF4-AF9 inh 0.3, rRNA inh HTS OD600 -4.0 and rRNA inh HTS RFP 0.0.
`CCCC(=O)Nc1ccc(C(=O)NCc2ccccc2Cl)cc1` gave Vif A3G 1.4%, rRNA inh HTS 7.0, HNF4A DNA FP -2.1, E coli growth 0.696, ALR H2O2 inh 0.8, rRNA inh HTS OD600 7.0 and rRNA inh HTS RFP -4.4.
`CCCCn1c(N)c(N(CC(C)C)C(=O)c2cccc(OCc3ccccc3)c2)c(=O)[nH]c1=O` gave Vif A3G 0.5%, rRNA inh HTS 8.4, HNF4A DNA FP 2.9, E coli growth 0.637, FGF22 binding inactive, ALR H2O2 inh 1.4, MLL AF4-AF9 inh -0.1, rRNA inh HTS OD600 6.7 and rRNA inh HTS RFP -2.5.
Cn1c(=O)c2c(nc(OC3CCCCCC3)n2C)n(C)c1=O was read as Vif A3G -3.3%, rRNA inh HTS 2.9, HNF4A DNA FP -2.5, FGF22 binding inactive, MLL AF4-AF9 inh 7.1, rRNA inh HTS OD600 12.8 and rRNA inh HTS RFP -1.5.
Screening CSC1=NCCN1CCOc1ccccc1 returned Vif A3G 8.9%, rRNA inh HTS 6.9, HNF4A DNA FP 0.3, E coli growth 0.68, FGF22 binding inactive, ALR H2O2 inh -3.2, MLL AF4-AF9 inh -3.0, rRNA inh HTS OD600 -1.9 and rRNA inh HTS RFP -3.5.
Screening O=C(C[C@H]1C=C[C@@H](NC(=O)Cc2ccccn2)[C@@H](CO)O1)NCCCN1CCOCC1 returned rRNA inh HTS -1.2, FGF22 binding inactive, MLL AF4-AF9 inh 1.0, rRNA inh HTS OD600 -0.1 and rRNA inh HTS RFP -0.1.
For O=C(c1ccc(-c2ccccc2)c(F)c1)C1CCCN(C(=O)c2cncs2)C1 (centres undefined) the results were Vif A3G 5.7%, rRNA inh HTS -46.0, HNF4A DNA FP 3.7, E coli growth 0.693, FGF22 binding inactive, MLL AF4-AF9 inh 0.6, rRNA inh HTS OD600 -71.1 and rRNA inh HTS RFP -25.1.
COCCNC(=O)CN(C)S(=O)(=O)c1ccc2c(c1)OCCO2 was read as Vif A3G 1.8%, HNF4A DNA FP 0.3, E coli growth 0.711 and ALR H2O2 inh -2.7.
For CC(C)C[C@@H]1CN=C(N)N1C[C@@H]1CCCN1C[C@@H](C(C)C)N1C[C@@H](Cc2ccccc2)N(CCc2ccc(Cl)c(Cl)c2)C1=N the results were Vif A3G 2.3%, HNF4A DNA FP 1.9, E coli growth 0.07*, FGF22 binding inactive and MLL AF4-AF9 inh 22.0.
`O=C(NCC1CCCO1)c1ccc(COc2ccc(F)cc2)o1` (centres undefined) gave Vif A3G -0.1%, HNF4A DNA FP 1.9, E coli growth 0.699 and ALR H2O2 inh -0.6.
`COc1ccc(C#Cc2ccc([C@@H]3[C@H](CO)N4CCCCN(C(=O)Nc5ccc(F)cc5)C[C@@H]34)cc2)cc1` gave rRNA inh HTS -57.9, FGF22 binding inactive, MLL AF4-AF9 inh -0.3, rRNA inh HTS OD600 -72.0 and rRNA inh HTS RFP -8.4.
`COC(=O)c1cc(Br)c(=O)n(-c2ccc(OC)cc2)c1` gave Vif A3G 8.3%, HNF4A DNA FP -2.9, E coli growth 0.715 and ALR H2O2 inh 0.3.
Screening Cn1c(Cn2c(=O)sc3ccccc32)nnc1SCC(=O)Nc1ccc(Cl)cc1 returned Vif A3G 16.6%, rRNA inh HTS -1.6, HNF4A DNA FP 3.6, E coli growth 0.689, FGF22 binding inactive, ALR H2O2 inh -5.6, MLL AF4-AF9 inh -3.1, rRNA inh HTS OD600 2.2 and rRNA inh HTS RFP -0.9.
COc1ccccc1C1CC(=O)n2c(nc(-c3ccccc3)c2-c2ccccc2)S1 (centres undefined) was read as rRNA inh HTS -0.7, HNF4A DNA FP 0.0, E coli growth 0.633, FGF22 binding inactive, ALR H2O2 inh -0.6, MLL AF4-AF9 inh 1.4, rRNA inh HTS OD600 16.8 and rRNA inh HTS RFP 1.6.
O=C(C[C@@H]1CC[C@H]2[C@@H](COC[C@H](O)CN2C(=O)c2ccc(F)cc2)O1)Nc1ccc(-c2ccccc2)cc1 was read as rRNA inh HTS 1.4, FGF22 binding inactive, MLL AF4-AF9 inh 6.1, rRNA inh HTS OD600 -10.4 and rRNA inh HTS RFP 25.9.
`COC(=O)[C@@]12CCCCN1[C@H](c1ccc(-c3ccccc3)c(OC)c1)[C@H]1C(=O)N(C)C(=O)[C@H]12` gave HNF4A DNA FP -3.4, FGF22 binding inactive, ALR H2O2 inh -0.3 and MLL AF4-AF9 inh -4.5.
For COCCN(C(=O)c1cc2c(s1)CCCCC2)c1c(N)n(Cc2ccccc2)c(=O)[nH]c1=O the results were Vif A3G -18.3%, rRNA inh HTS -7.1, HNF4A DNA FP -0.7, E coli growth 0.687, FGF22 binding inactive, ALR H2O2 inh -2.9, MLL AF4-AF9 inh -3.6, rRNA inh HTS OD600 -10.9 and rRNA inh HTS RFP 2.3.
For Nc1c(C(=O)OCC(=O)NCc2ccccc2)[nH]c(=O)[nH]c1=O the results were rRNA inh HTS 15.4, HNF4A DNA FP 10.3, E coli growth 0.667, FGF22 binding inactive, ALR H2O2 inh 21.8, MLL AF4-AF9 inh 37.8*, rRNA inh HTS OD600 6.2 and rRNA inh HTS RFP -5.9.
Screening CCCc1cc(=O)[nH]c(SCC)n1 returned Vif A3G -10.2%, HNF4A DNA FP -1.2, E coli growth 0.669 and ALR H2O2 inh -1.4.
For Cc1ccc(S(=O)(=O)N(C)CC(=O)N/N=C/c2ccc(C)o2)cc1 the results were Vif A3G 2.8%, rRNA inh HTS 2.1, HNF4A DNA FP -0.4, FGF22 binding inactive, ALR H2O2 inh -4.4, MLL AF4-AF9 inh 5.2, rRNA inh HTS OD600 -0.1 and rRNA inh HTS RFP -3.7.
`CC(=O)Nc1ccc(-c2csc(Nc3cc(C)ccn3)n2)cc1` gave rRNA inh HTS -47.8*, HNF4A DNA FP 2.5, E coli growth 0.637, FGF22 binding inactive, ALR H2O2 inh -6.1, MLL AF4-AF9 inh 1.6, rRNA inh HTS OD600 -29.0* and rRNA inh HTS RFP -3.7*.
`COc1cccc(CNC(=S)Nc2cc(C)ccc2C)c1` gave Vif A3G 21.4%, rRNA inh HTS -25.9*, HNF4A DNA FP -0.5, E coli growth 0.674, FGF22 binding inactive, ALR H2O2 inh 4.1, MLL AF4-AF9 inh -0.4, rRNA inh HTS OD600 -10.3* and rRNA inh HTS RFP -3.6*.
CC(=O)N1N=C(c2ccco2)CC1c1cc2cc(C)ccc2nc1Cl (centres undefined) was read as Vif A3G -6.0%, rRNA inh HTS 19.1, HNF4A DNA FP 2.3, E coli growth 0.657, FGF22 binding inactive, ALR H2O2 inh 40.2, MLL AF4-AF9 inh 1.9, rRNA inh HTS OD600 1.7 and rRNA inh HTS RFP 5.5.
For CC(NC(=O)c1ccncc1)C(c1cccs1)N1CCOCC1 (centres undefined) the results were Vif A3G -6.4%, rRNA inh HTS 5.5, HNF4A DNA FP 2.3, E coli growth 0.631, FGF22 binding inactive, ALR H2O2 inh -4.1, MLL AF4-AF9 inh 4.2, rRNA inh HTS OD600 3.3 and rRNA inh HTS RFP -9.7.
Screening CCOC(=O)c1sc2nc(CC(=O)OC)nc(NCCN3CCOCC3)c2c1C returned Vif A3G 10.1%, HNF4A DNA FP -0.5 and E coli growth 0.752.
CC(C)NC(=O)c1ccc(-c2ccc(Cl)c(C(F)(F)F)c2)o1 was read as Vif A3G -3.3%, HNF4A DNA FP 1.6, E coli growth 0.756 and ALR H2O2 inh -6.0.
Screening Nc1ccc(-c2nc3c(Cl)c(N)ccc3[nH]2)cc1 returned Vif A3G 8.2%, HNF4A DNA FP 9.3, E coli growth 0.655 and ALR H2O2 inh 98.5*.
CCOc1ccc(N2CC(C(=O)NNC(=O)c3ccc(F)cc3)CC2=O)cc1 (centres undefined) was read as Vif A3G -2.7%, HNF4A DNA FP -1.3, E coli growth 0.648, FGF22 binding inactive, ALR H2O2 inh -1.4 and MLL AF4-AF9 inh inconclusive.
`COc1ccc2cc(C(=O)N3CCOCC3)sc(=O)c2c1OC` gave Vif A3G 69.7%, HNF4A DNA FP -5.0, E coli growth 0.749 and ALR H2O2 inh 1.6.
Screening CC(=O)CCSc1ncnc2sc(-c3ccccc3)cc12 returned rRNA inh HTS -22.9, HNF4A DNA FP 1.2, E coli growth 0.718, FGF22 binding inactive, ALR H2O2 inh 34.2, MLL AF4-AF9 inh -1.7, rRNA inh HTS OD600 -24.7 and rRNA inh HTS RFP -6.0.
Screening Nc1nc(Sc2ccc([N+](=O)[O-])c3nonc23)c2[nH]cnc2n1 returned Vif A3G 10.9µM*, rRNA inh HTS 13.5, HNF4A DNA FP -6.4, FGF22 binding inactive, MLL AF4-AF9 inh -53.6, rRNA inh HTS OD600 15.2 and rRNA inh HTS RFP 11.3.
For Cc1cccc(N2CC(C(=O)Nc3nnc(SCC(=O)Nc4nccs4)s3)CC2=O)c1 (centres undefined) the results were Vif A3G -11.7%, HNF4A DNA FP 3.3, E coli growth 0.677 and ALR H2O2 inh 12.5.
Cc1ccc(N=Nc2c(O)[nH]c3ccc(F)cc23)cc1 was read as Vif A3G 6.8%, rRNA inh HTS 12.9, HNF4A DNA FP 106.1, E coli growth 0.678, FGF22 binding inactive, ALR H2O2 inh -7.8, MLL AF4-AF9 inh 3.3, rRNA inh HTS OD600 -8.4 and rRNA inh HTS RFP 1.2.
S=C(Nc1ccc2c(c1)OCO2)N1CCN(Cc2ccco2)CC1 was read as Vif A3G 9.0%, rRNA inh HTS 9.0, HNF4A DNA FP -1.5, E coli growth 0.706, FGF22 binding inactive, ALR H2O2 inh 7.8, MLL AF4-AF9 inh -1.7, rRNA inh HTS OD600 6.7 and rRNA inh HTS RFP 3.2.
Cc1cc(C)c(S(C)(=O)=O)c(Oc2ccc(C(C)(C)C)cc2)n1 was read as Vif A3G 9.0%, HNF4A DNA FP -5.8 and E coli growth 0.763.
C[C@H]1CN([C@@H](C)CO)S(=O)(=O)c2ccc(C#Cc3cccc(F)c3)cc2O[C@H]1CN(C)C(=O)CN1CCOCC1 was read as rRNA inh HTS 1.6, FGF22 binding inactive, MLL AF4-AF9 inh 5.1, rRNA inh HTS OD600 -15.1 and rRNA inh HTS RFP 12.7.
For CCOCC(=O)Nc1nc2ccc(S(C)(=O)=O)cc2s1 the results were Vif A3G -7.9%, HNF4A DNA FP 1.5, E coli growth 0.793 and ALR H2O2 inh -8.1.
`COC(=O)C(C(=O)OC)C(C)C(C(=O)OC)C(=O)OC` gave Vif A3G 6.0%, HNF4A DNA FP -0.9, E coli growth 0.71 and ALR H2O2 inh 1.6.
Screening Cc1ccc(NCc2nnc(SCC(=O)N(Cc3ccccc3)C(C)(C)C)o2)c(C)c1 returned Vif A3G 8.8%, HNF4A DNA FP -3.0, E coli growth 0.757 and ALR H2O2 inh 8.1.
Screening c1cnn(Cc2cnc(N3CCOCC3)s2)c1 returned rRNA inh HTS 7.9, HNF4A DNA FP -2.2, E coli growth 0.727, MLL AF4-AF9 inh -2.3, rRNA inh HTS OD600 0.2 and rRNA inh HTS RFP -0.4.

Screening results as filed in PubChem.
